FGF22 binding: FGF22 (human) thermal shift binding | calls only at 9.99 µM | Q9HCT0 | actives 1.5% (n = 340,000) | recombinant FGF22 thermal shift, SYPRO orange fluorescence; percent of sucrose octasulfate shift, DMSO zero | AID 651658;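 active = melting point raised past a set limit in the mean and every replicate; three in four hits are not shown here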
Target sequence (Q9HCT0 whole entry, looked up): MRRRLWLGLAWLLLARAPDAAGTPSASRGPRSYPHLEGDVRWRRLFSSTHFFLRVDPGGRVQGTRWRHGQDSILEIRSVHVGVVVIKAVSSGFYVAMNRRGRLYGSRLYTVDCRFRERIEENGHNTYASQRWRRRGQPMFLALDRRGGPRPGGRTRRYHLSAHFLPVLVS
Ecoli rRNA inh: selective bacterial rRNA inhibition in E. coli; E. coli WT GFP vs humanized-ribosome RFP mutants, fluorescence, 24 h; stronger effect = lower value; DMSO median 0, no signal -100; GFP signal change (wild-type ribosome), % (test concentration not listed); AID 720706; actives 1.6% (n = 350,000);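 active = significant combined selectivity score with lowered wild-type GFP, culture density cut under 30%, mutant RFP and density less affected; inactive = any of these conditions unmet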; note: one replicate is shown; some compounds called inactive have numbers as strong as hits
MLL AF4-AF9 inh: blocks AF4 peptide binding to human AF9; P42568; AlphaScreen, biotin-AF4 peptide binding to FLAG-AF9; inhibition, % at 10 µM; actives 0.47% (n = 350,000); AID 651704;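 active = every replicate reaching a set inhibition limit, whatever the replicate mean, cut at about 25% in these data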;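 note: 0% = plate neutral control median and 100% = total signal loss; the record names both 10 and 1 µM as test concentration; the first replicate is given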
Target sequence (P42568 whole entry, looked up): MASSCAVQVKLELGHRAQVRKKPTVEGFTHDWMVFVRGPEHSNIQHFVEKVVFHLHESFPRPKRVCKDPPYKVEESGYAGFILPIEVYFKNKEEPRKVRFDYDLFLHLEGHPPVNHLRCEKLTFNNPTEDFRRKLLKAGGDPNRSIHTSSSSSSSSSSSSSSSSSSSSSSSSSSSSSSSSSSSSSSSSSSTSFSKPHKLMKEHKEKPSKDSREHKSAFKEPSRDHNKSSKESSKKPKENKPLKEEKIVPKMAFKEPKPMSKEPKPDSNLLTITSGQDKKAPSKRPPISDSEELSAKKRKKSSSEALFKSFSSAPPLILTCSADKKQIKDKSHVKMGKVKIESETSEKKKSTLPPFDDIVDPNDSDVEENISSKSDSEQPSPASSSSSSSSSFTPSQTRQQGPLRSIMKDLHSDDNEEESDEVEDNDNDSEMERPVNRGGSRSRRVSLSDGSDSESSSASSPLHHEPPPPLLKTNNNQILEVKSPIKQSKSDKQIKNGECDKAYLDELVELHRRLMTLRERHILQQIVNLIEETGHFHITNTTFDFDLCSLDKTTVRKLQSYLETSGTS
Ecoli rRNA inh OD600: second read-out of Ecoli rRNA inh, no call of its own (marks repeat the call); OD600 change, %; measured here: OD600 growth;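 optical density of the mix in the first replicate; 0 = DMSO median and -100 = no signal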
Ecoli rRNA inh RFP: second read-out of Ecoli rRNA inh, no call of its own (marks repeat the call); RFP signal change, %; measured here: RFP humanized mutant strains;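 first replicate; 0 = DMSO median and -100 = no signal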
* marks the source's active call; other numbers are inactive results; i = inactive; x = not tested or not shown.

| FGF22 binding | Ecoli rRNA inh | Ecoli rRNA inh OD600 | Ecoli rRNA inh RFP | MLL AF4-AF9 inh | structure |
| --- | --- | --- | --- | --- | --- |
| i | 3 | -2 | -0.9 | -3.7 | C[C@H]1CN([C@@H](C)CO)C(=O)c2cc(NC(=O)CCCN(C)C)ccc2O[C@@H]1CN(C)CC1CCCCC1 |
| i | -8 | 5 | -4.8 | -1.0 | CN1CCN(C(=O)C[C@H]2CC[C@@H]3[C@@H](COc4ccc(NC(=O)C5CC5)cc4C(=O)N3C)O2)CC1 |
| i | 0 | 0 | -0.1 | 0.7 | CO[C@H]1CN(C)C(=O)c2cc(NC(=O)c3nc4ccccc4s3)ccc2OC[C@H](C)NC[C@@H]1C |
| i | 0 | 2 | -0.9 | -2.4 | CN1C(=O)c2cc(NC(=O)c3ccccc3)ccc2OC[C@@H]2O[C@H](CC(=O)NC3CCCC3)CC[C@H]21 |
| i | 2 | 5 | -1.2 | -1.7 | O=C(CC[C@H]1O[C@@H](n2cnc3c(NC(=O)c4ccccc4)ncnc32)[C@H](O)[C@@H]1O)NCc1cccc2ccccc12 |
| i | -3 | 2 | -2.8 | 0.5 | C[C@@H]1CN([C@@H](C)CO)C(=O)Cc2cc(NC(=O)CCCCCC(=O)Nc3ccccc3N)ccc2O[C@H]1CN(C)C(=O)NC1CCCCC1 |
| i | 2 | 2 | 1.7 | 0.3 | CCN(CC)c1ncnc2c1ncn2[C@H]1CN(Cc2cccs2)C[C@@H](CO)O1 |
| i | 2 | 9 | -3.5 | -1.3 | COc1ccc(NC(=O)Nc2ccc3c(c2)[C@@H]2C[C@H](CC(=O)N[C@@H](C)c4ccccc4)O[C@@H](CO)[C@@H]2O3)cc1 |
| i | 4 | 4 | -0.7 | 0.2 | CC(C)NC(=O)N(C)C[C@H]1Oc2cc(-c3cncnc3)ccc2S(=O)(=O)N([C@H](C)CO)C[C@@H]1C |
| i | -23 | -22 | -2.8 | -1.7 | C[C@@H]1CN([C@@H](C)CO)C(=O)c2cccc(NC(=O)c3ccc(-c4nccs4)cc3)c2O[C@H]1CN(C)S(=O)(=O)c1cn(C)cn1 |
| i | 8 | 17 | -1.7 | -0.7 | C/C=C/c1cnc2c(c1)C(=O)N([C@H](C)CO)C[C@@H](C)[C@H](CN(C)C(=O)NC1CCCC1)O2 |
| i | -1 | 4 | 1.2 | 8.4 | O=C(C[C@H]1CC[C@@H]2[C@H](COC[C@@H](O)CN2Cc2cc(F)ccc2F)O1)N[C@@H]1CCN(Cc2ccccc2)C1 |
| i | 0 | 0 | 0.0 | -1.4 | O=C(C[C@H]1CC[C@H](NC(=O)c2cccnc2)[C@H](CO)O1)NCCN1CCCCC1 |
| i | -51 | -74 | 11 | 6.2 | CCCN1[C@H](C(=O)NC2Cc3ccccc3C2)[C@@H](CO)[C@@H]2Cn3c(ccc(C4=CCCCC4)c3=O)[C@@H]21 |
| i | 2 | -5 | -1.1 | -6.2 | COCC(=O)N1C[C@H]2[C@@H](c3ccccc31)[C@@H](CO)N2C(=O)c1ccncc1 |
| i | 9 | 12 | -0.2 | 2.5 | NC(=O)c1csc(CCNC(=O)c2ccccc2)n1 |
| i | 11 | 7 | 7.9 | 0.6 | COc1ccc(C(C(=O)Nc2ccc(F)cc2)N2CCN(CC(=O)N3CCCC3)CC2)cc1 (centres undefined) |
| i | -10 | -2 | 4.9 | -7.1 | O=C(NNC(=O)c1csc(-c2ccccc2)n1)c1ccccc1 |
| i | 2 | -2 | -3.1 | 1.4 | CC(=O)NCCNC(=O)C1Cc2c(-c3ccccc3Oc3ccccc3)ccnc2O1 (centres undefined) |
| i | 1 | 7 | 2.4 | 0.3 | COCC(=O)N1[C@H](CO)[C@H](c2ccc(-c3ccccc3)cc2)C12CN(C(C)=O)C2 |
| i | 1 | -1 | -3.8 | -1.6 | COc1cccc(NC(=O)N[C@H]2C=C[C@@H](CC(=O)N3CCCCC3)O[C@H]2CO)c1 |
| i | 2 | 3 | 0.1 | 1.7 | C[C@@H]1CN([C@@H](C)CO)C(=O)c2cc(N(C)C)ccc2O[C@H]1CN(C)Cc1ccc2c(c1)OCO2 |
| i | -2 | 4 | -4.5 | -0.8 | CC=Cc1ccc2n(c1=O)C[C@H]1[C@H](CO)[C@@H](C(=O)NCC3CCCCC3)[C@@H]2N1C(=O)CC (mixture of isomers) |
| i | 7 | -3 | -0.4 | 4.2 | C[C@@H]1CN([C@H](C)CO)C(=O)c2cc(NC(=O)Nc3cccc4ccccc34)ccc2O[C@@H]1CN(C)Cc1ccc(Oc2ccccc2)cc1 |
| i | -1 | -2 | -0.2 | 0.0 | CO[C@H]1CN(C)C(=O)c2ccc(NC(=O)Nc3ccccc3F)cc2OC[C@@H](C)N(Cc2ccccc2C(=O)O)C[C@@H]1C |

Arranged by SMILES length (ascending): some entries from above.
| FGF22 binding | Ecoli rRNA inh | Ecoli rRNA inh OD600 | Ecoli rRNA inh RFP | MLL AF4-AF9 inh | structure |
| --- | --- | --- | --- | --- | --- |
| i | 2 | -2 | -3.1 | 1.4 | CC(=O)NCCNC(=O)C1Cc2c(-c3ccccc3Oc3ccccc3)ccnc2O1 (centres undefined) |
| i | 0 | 0 | 0.0 | -1.4 | O=C(C[C@H]1CC[C@H](NC(=O)c2cccnc2)[C@H](CO)O1)NCCN1CCCCC1 |
| i | 3 | -2 | -0.9 | -3.7 | C[C@H]1CN([C@@H](C)CO)C(=O)c2cc(NC(=O)CCCN(C)C)ccc2O[C@@H]1CN(C)CC1CCCCC1 |
| i | -1 | 4 | 1.2 | 8.4 | O=C(C[C@H]1CC[C@@H]2[C@H](COC[C@@H](O)CN2Cc2cc(F)ccc2F)O1)N[C@@H]1CCN(Cc2ccccc2)C1 |
| i | -23 | -22 | -2.8 | -1.7 | C[C@@H]1CN([C@@H](C)CO)C(=O)c2cccc(NC(=O)c3ccc(-c4nccs4)cc3)c2O[C@H]1CN(C)S(=O)(=O)c1cn(C)cn1 |

Remaining list, next part
| FGF22 binding | Ecoli rRNA inh | Ecoli rRNA inh OD600 | Ecoli rRNA inh RFP | MLL AF4-AF9 inh | structure |
| --- | --- | --- | --- | --- | --- |
| i | 1 | 1 | 1.2 | 0.5 | CO[C@@H]1CN(C)C(=O)c2cc(NC(=O)Nc3c(C)noc3C)ccc2OC[C@H](C)N(C)C[C@H]1C |
| i | 3 | 11 | -2.6 | -1.3 | CN(C)CC(=O)Nc1ccc2c(c1)[C@H]1C[C@H](CC(=O)NC3CCCC3)O[C@H](CO)[C@H]1O2 |
| i | 3 | -1 | 3.8 | 6.7 | CCOC(=O)CN1CCCc2nc(-c3ccc(OC)cc3)ccc21 |
| i | -1 | 6 | -0.8 | 2.1 | Cc1noc(C)c1S(=O)(=O)Nc1ccc2c(c1)CC(=O)N([C@@H](C)CO)C[C@@H](C)[C@@H](CN(C)Cc1ccc(C(=O)Nc3ccccc3N)cc1)O2 |
| i | 2 | 12 | -3.9 | -4.0 | CCc1ccc([C@@H]2C[C@H]3[C@@H](CN2S(=O)(=O)c2ccc(C)cc2)C(=O)C[C@@H](c2cccc(Cl)c2)N3S(=O)(=O)c2ccc(C)cc2)cc1 |
| i | 1 | 20 | 0.6 | -1.2 | Cc1noc(C)c1NC(=O)Nc1ccc2c(c1)CC(=O)N([C@H](C)CO)C[C@H](C)[C@@H](CN(C)CC1CC1)O2 |
| i | -10 | -26 | -2.0 | 0.1 | COc1ccc(C(C)(NC(C)=O)c2nc(-c3cccc(F)c3)cs2)cc1 (centres undefined) |
| i | 4 | 2 | -7.0 | 6.3 | COCC(=O)N1CC2(C1)CN(C(=O)COC)[C@H](CO)c1c2c2ccc(OC)cc2n1C |
| i | 16 | 14 | 1.4 | 1.7 | O=[N+]([O-])c1cccc(COc2ccc(CN3CCCCC3)cc2)c1 |
| i | -8 | -22 | 4.4 | 0.7 | C[C@@H]1CN([C@H](C)CO)S(=O)(=O)c2ccc(C#Cc3ccccc3)cc2O[C@H]1CN(C)C(=O)c1ccccn1 |
| i | 12 | 14 | 0.5 | -7.1 | COC(=O)C[C@H]1C=C[C@@H](NC(=O)c2ccncc2)[C@@H](CO)O1 |
| x | -56 | -76 | -15 | 0.4 | COC(=O)C1=C(C)N(Cc2ccc(C(F)(F)F)cc2)C(=NCc2ccccc2)NC1c1cccc(Cl)c1 (centres undefined) |
| i | 2 | 5 | 0.1 | -1.6 | O=C(Cc1ccccn1)N1CC2(C1)[C@@H](c1ccccc1)[C@@H](CO)N2C(=O)c1cccnc1 |
| i | 1 | -3 | -2.6 | -3.7 | CC(C)NC(=O)N[C@H]1CC[C@H](CCn2cc(-c3ccc(F)cc3)nn2)O[C@H]1CO |
| i | -7 | -2 | -8.9 | 0.2 | Cc1ccc(CN2CCC[C@]3(N[C@H](c4ccc(C(F)(F)F)cc4)[C@@H]4C(=O)N(Cc5ccccc5)C(=O)[C@@H]43)C2=O)cc1 |
| i | -4 | -18 | 10.0 | 1.8 | O=S(=O)(N[C@@H]1CC[C@H](CCn2cc(-c3ccccc3F)nn2)O[C@@H]1CO)c1ccc(Cl)cc1 |
| i | 1 | 7 | -0.3 | 1.4 | COc1ccc(C#Cc2ccc3c(c2)[C@H]2[C@H](CCN2C(=O)CC2CC2)[C@H](CO)N3)cc1 |
| i | 5 | 12 | 5.6 | -1.1 | CC1(C(=O)NS(=O)(=O)Cc2ccccc2C(F)(F)F)CCN1C(=O)c1ccco1 (centres undefined) |
| i | -2 | 2 | -2.2 | -0.6 | C[C@@H]1CN([C@H](C)CO)C(=O)c2cc(C#CC3(O)CCCC3)cnc2O[C@H]1CN(C)Cc1cccnc1 |
| i | -1 | 3 | 0.4 | 0.0 | CO[C@H]1CN(C)C(=O)c2ccc(NC(=O)c3ccccc3)cc2OC[C@@H](C)N(C)C[C@@H]1C |
| i | 1 | 7 | -1.3 | 1.7 | COCCNC(=O)[C@@H]1[C@@H](CO)[C@@H]2Cn3c(ccc(C4=CCCCC4)c3=O)[C@H]1N2Cc1cocn1 |
| i | 2 | 8 | 0.4 | -11 | CCC(=O)Nc1ccc2c(c1)OC[C@H](C)N(C(=O)c1cccnc1)C[C@@H](C)[C@H](OC)CN(C)C2=O |
| i | 0 | -4 | 0.5 | -8.0 | C[C@@H]1CCCCO[C@@H](CN(C)S(=O)(=O)c2ccccc2)[C@H](C)CN([C@H](C)CO)C(=O)c2cc(NS(=O)(=O)c3ccccc3)ccc2O1 |
| i | 5 | 7 | 1.8 | -4.4 | CO[C@@H]1CN(C)C(=O)c2ccc(NC(=O)c3ccno3)cc2OC[C@H](C)N(S(C)(=O)=O)C[C@@H]1C |
| i | 2 | 1 | -2.8 | -2.0 | CCCN1[C@@H]2Cn3c(ccc(-c4cccnc4)c3=O)[C@H]1[C@@H](C(=O)NCCc1cn(C)cn1)[C@@H]2CO |

Later entries
| FGF22 binding | Ecoli rRNA inh | Ecoli rRNA inh OD600 | Ecoli rRNA inh RFP | MLL AF4-AF9 inh | structure |
| --- | --- | --- | --- | --- | --- |
| i | 9 | 32 | 8.7 | -7.9 | COc1ccc(-c2noc([C@@H]3O[C@H](CO)[C@H](O)[C@H](O)[C@H]3O)n2)cc1OC |
| i | 0 | 2 | -1.9 | 2.2 | C[C@@H]1CN([C@@H](C)CO)S(=O)(=O)c2ccc(-c3cncnc3)cc2O[C@H]1CN(C)C(=O)Cc1ccccc1 |
| i | 0 | 2 | -1.5 | 0.2 | CCNC(=O)C[C@@H]1CC[C@H](NS(=O)(=O)c2ccc(C)cc2)[C@H](CO)O1 |
| i | -1 | 5 | -0.7 | -1.0 | C[C@@H]1CCCCO[C@@H](CN(C)Cc2ccc(C(=O)Nc3ccccc3N)cc2)[C@@H](C)CN([C@H](C)CO)C(=O)c2cc(NC(=O)Cc3ccccc3)ccc2O1 |
| i | -2 | 4 | -3.1 | -0.9 | C[C@@H]1CCCCO[C@@H](CN(C)S(=O)(=O)c2ccccc2)[C@@H](C)CN([C@H](C)CO)C(=O)c2cc(NC(=O)c3ccccc3)ccc2O1 |
| i | 0 | 6 | -4.2 | -1.3 | COc1ccc2c3c([nH]c2c1)[C@H](CO)N(Cc1ccccc1)CC31CN(C(C)=O)C1 |
| i | -5 | -11 | -11 | -17 | Cc1nc(CN2C(=O)C3(CCC3)ON=C2c2cccc(Cl)c2)cs1 |
| i | 8 | -14 | -1.7 | -0.1 | Cc1c(Br)cccc1NC(=O)C1(C)CCN1Cc1ccc(OC(C)C)cc1 (centres undefined) |
| i | 4 | 19 | 0.6 | -4.2 | C[C@H]1CN([C@@H](C)CO)C(=O)c2cccc(NC(=O)c3ccncc3)c2O[C@@H]1CN(C)S(=O)(=O)c1ccc(F)cc1 |
| i | -2 | 9 | -2.3 | 1.1 | C[C@H]1CN([C@@H](C)CO)S(=O)(=O)c2ccc(Br)cc2O[C@H]1CN(C)Cc1cccnc1 |
| i | 10 | 7 | -9.4 | -1.6 | CCc1nc2c(OC)cccn2c1N(C)C(=O)c1ccccc1F |
| i | 3 | -8 | 1.7 | 6.5 | C[C@H]1CCCCO[C@@H](CN(C)C(=O)CCC(F)(F)F)[C@@H](C)CN([C@@H](C)CO)C(=O)c2cc(NS(=O)(=O)c3ccc(F)cc3)ccc2O1 |
| i | -26 | -67 | 20 | -3.5 | N#Cc1ccc(-c2ccc3c(c2)[C@H]2[C@H](CCN2C(=O)C2CCCCC2)[C@@H](CO)N3)cc1 |

Bioassay records deposited in PubChem BioAssay by Broad Institute.

A portion of the library (hit frequency here may not be typical).
